# Source: PubChem
# AF4-AF9 inh – inhibitors of human MLL-AF4/AF9 interaction; inhibition, % at 10 µM; AlphaScreen, biotin-AF4 peptide binding to FLAG-AF9; AID 651704; P42568; hit rate 0.47% among 350,000;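 active = every replicate reaching a set inhibition limit, whatever the replicate mean, cut at about 25% in these data; inconclusive = mean inhibition reaches that limit but some replicates miss it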;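 note: 0% = plate neutral control median and 100% = total signal loss; the record names both 10 and 1 µM as test concentration; the first replicate is given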
# FGF22 binding – binders of recombinant human FGF22 by thermal shift; calls only at 9.99 µM; hit rate 1.5% among 340,000; SYPRO orange fluorescence; percent of sucrose octasulfate shift, DMSO zero; Q9HCT0; AID 651658;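 active = melting point raised past a set limit in the mean and every replicate; inconclusive = no clear call; three in four hits are not shown here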
# Target sequence (Q9HCT0 whole entry, looked up): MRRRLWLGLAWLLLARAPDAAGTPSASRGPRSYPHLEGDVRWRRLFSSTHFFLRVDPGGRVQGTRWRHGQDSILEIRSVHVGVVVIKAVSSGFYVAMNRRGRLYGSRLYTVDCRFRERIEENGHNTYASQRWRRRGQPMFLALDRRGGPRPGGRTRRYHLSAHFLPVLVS
# Ecoli growth – inhibitors of Escherichia coli growth | OD600, 23 h; hits give low values | OD600 absorbance (no concentration beside the values) | hit rate 0.21% among 330,000 | AID 1053175;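 active = OD600 absorbance below the run mean of sample wells minus 3.6 SD, in any replicate, cut at about 0.56 in these data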;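 note: stock transfer was 300 nL into about 60 µL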
# HNF4A DNA FP – change in binding of human HNF4 alpha to DNA; HNF4a-FITC DNA binding, fluorescence polarization, 1 h; activity change, % at 10 µM; hit rate 0.3% among 360,000; AID 1224865; in the data active = activity change above about 30%, passing the limit was not always enough;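 note: controls were the assay level and a saturating level of protein; the project sought stronger binding though the title names inhibitors; some compounds called inactive have numbers as strong as hits; positive values seem to mean higher polarization but the record does not say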
# Target sequence (P41235 whole entry, looked up): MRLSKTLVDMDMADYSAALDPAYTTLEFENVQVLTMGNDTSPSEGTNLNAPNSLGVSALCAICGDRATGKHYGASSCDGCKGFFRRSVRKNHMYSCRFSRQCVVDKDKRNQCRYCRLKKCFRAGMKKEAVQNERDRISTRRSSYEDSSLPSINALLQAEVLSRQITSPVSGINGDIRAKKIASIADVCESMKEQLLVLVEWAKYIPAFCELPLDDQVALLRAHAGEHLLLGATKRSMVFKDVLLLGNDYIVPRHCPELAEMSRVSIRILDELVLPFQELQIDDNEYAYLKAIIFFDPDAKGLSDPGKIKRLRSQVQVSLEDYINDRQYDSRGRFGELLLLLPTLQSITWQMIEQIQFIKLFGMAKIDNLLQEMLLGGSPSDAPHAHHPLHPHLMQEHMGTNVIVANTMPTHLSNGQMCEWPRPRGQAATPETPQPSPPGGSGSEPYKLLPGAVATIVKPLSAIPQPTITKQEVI
# rRNA inh HTS – inhibitors of bacterial rRNA selective over humanized ribosomes; GFP signal change (wild-type ribosome), % (concentration not given with the values); hit rate 1.6% among 350,000; E. coli WT GFP vs humanized-ribosome RFP mutants, fluorescence, 24 h; hits give low values; DMSO median 0, no signal -100;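 active = significant combined selectivity score with lowered wild-type GFP, culture density cut under 30%, mutant RFP and density less affected; inactive = any of these conditions unmet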; note: one replicate is shown; some compounds called inactive have numbers as strong as hits
# ALR H2O2 inh – blocks human ALR sulfhydryl oxidase activity; purified ALR, DTT oxidation, H2O2 HRP-luminol luminescence; inhibition, % (concentration not given with the values); hit rate 3.8% among 290,000; AID 485317;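 active = mean and each replicate at 75% or more; inconclusive = only one of the two met; inactive = neither met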;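 note: stock transfer was 7.5 nL into about 7.5 µL; 0% = neutral wells and 100% = wells with inactivated enzyme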
# Target sequence (P55789 whole entry, looked up): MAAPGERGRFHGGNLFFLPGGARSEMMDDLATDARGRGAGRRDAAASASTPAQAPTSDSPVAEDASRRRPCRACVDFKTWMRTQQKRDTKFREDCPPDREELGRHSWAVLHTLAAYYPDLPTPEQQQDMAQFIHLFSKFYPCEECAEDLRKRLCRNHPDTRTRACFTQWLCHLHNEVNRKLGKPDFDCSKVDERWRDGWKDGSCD
# Vif A3G – HIV-1 Vif–A3G interaction blockers – biochemical, TR-FRET, GST-Vif 1-94, biotin-A3G peptide, dose response retest, primary screen (AID 1117319) | TR-FRET GST-Vif / biotin-A3G peptide binding; higher % means a stronger effect; test concentration not given here; strong numbers were not always called active | inhibition, %; hits with a dose series show IC50 in µM | hit rate 0.57% among 260,000;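 active = above the screen mean plus three standard deviations and confirmed in dose response; inconclusive = results disagree or hit not tested in dose response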;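 note: Vif residues 1-94 fused to GST binding biotinylated APOBEC3G peptide 110-148; 0% = full assay without inhibitor and 100% = GST in place of GST-Vif; retest series ran down from 100 µM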
# rRNA inh HTS OD600 – recorded beside rRNA inh HTS, whose call it bears; OD600 change, %; measured here: OD600 growth;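 optical density of the mix in the first replicate; 0 = DMSO median and -100 = no signal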
# rRNA inh HTS RFP – recorded beside rRNA inh HTS, whose call it bears; RFP signal change, %; measured here: RFP humanized mutant strains;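 first replicate; 0 = DMSO median and -100 = no signal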
# * hit, by the source's call; i = inactive; ? = inconclusive; nt = no result given.
SMILES,AF4-AF9 inh,FGF22 binding,Ecoli growth,HNF4A DNA FP,rRNA inh HTS,rRNA inh HTS OD600,rRNA inh HTS RFP,ALR H2O2 inh,Vif A3G
O=C(NCC(F)(F)F)c1ccc2sc([C@@H]3O[C@H](CO)[C@H](O)[C@H](O)[C@H]3O)nc2c1,-1.0,i,nt,2.8,15.8,30.5,-1.5,nt,nt
N#Cc1cccc(S(=O)(=O)NCC(=O)NCCCc2ccccc2)c1,-0.7,i,0.672,2.5,3.5,3.3,2.6,-3.7,-6.8%
O=C(COC(=O)CCC(=O)c1cccs1)Nc1cc(S(=O)(=O)N2CCOCC2)ccc1Cl,nt,nt,0.723,5.0,nt,nt,nt,-5.4,2.9%
COc1ccc(NC(=O)CNC(=O)Cn2cnc3sc4c(c3c2=O)CCCC4)cc1OC,-13.0,i,0.676,2.1,11.6,12.0,-2.7,-3.1,nt
CCC(C(=O)NC1CCCCC1)n1c(SCc2ccccc2F)nc2ccncc21 (centres undefined),-3.7,i,0.691,-0.8,7.8,9.2,1.2,nt,-7.3%
O=c1[nH]c2c(Br)cnc([N+](=O)[O-])c2[nH]1,-16.3,i,0.652,2.1,-7.2,-2.2,-0.4,-10.1,28.3%
O=C(CN1C(=O)COc2ccccc21)NCCC1=CCCCC1,-25.6,nt,0.695,-1.1,-2.0,3.5,4.0,4.7,1.5%
Cc1ccc(C)n1-c1ccc(C(=O)N2CCOCC2)cc1,1.8,i,0.699,-0.6,11.1,-10.7,6.9,-17.3,16.9%
Cc1noc(C)c1NC(=O)Nc1ccc2c(c1)C(=O)N([C@@H](C)CO)C[C@@H](C)[C@@H](CN(C)Cc1ccc(C(=O)Nc3ccccc3N)cc1)O2,0.8,i,nt,nt,-1.1,7.0,-0.2,nt,nt
CN1C(=O)c2cc(NC(=O)c3ccc(F)c(F)c3)ccc2OC[C@@H]2O[C@H](CC(=O)N3CCOCC3)CC[C@@H]21,-0.7,i,nt,nt,-3.3,-4.3,-4.9,nt,nt
CNC[C@H]1Oc2c(NS(=O)(=O)c3cccs3)cccc2C(=O)N([C@@H](C)CO)C[C@H]1C,-2.7,i,nt,nt,3.8,4.0,0.1,nt,nt
O=C(CC(=O)N/N=C/c1ccc(C(=O)O)cc1)NCCc1ccccc1,-1.4,i,nt,-0.5,6.7,0.7,-3.5,0.4,nt
Cc1[nH]c2ccccc2c1C(C#N)(C#N)C1C(=O)c2ccccc2C1=O,65.2*,i,0.693,9.2,-22.0,-20.6,4.3,?,13.1%
CCOC(=O)c1cc2c(ccn2C)n1CC(=O)N1CCN(c2ccccc2)CC1,nt,nt,0.69,-0.2,nt,nt,nt,36.9,?
COc1ccc(NC(=O)N(C)C[C@@H]2Oc3ccc(NC(=O)Cn4cnnn4)cc3CC(=O)N([C@@H](C)CO)C[C@@H]2C)cc1,-4.0,i,nt,nt,0.6,5.0,1.7,nt,nt
CN(C(=O)CSCC(=O)Nc1ccc(Cl)cc1)C1CCCCC1,7.4,i,0.666,-1.3,-21.2,-34.0,-0.2,-4.7,-8.1%
O=C1c2cccc([N+](=O)[O-])c2C(=O)N1CCO,-7.9,i,0.677,0.2,25.4,-9.6,65.0,-7.9,-5.6%
COc1ccc2c3c([nH]c2c1)[C@@H](CO)N(C(=O)c1ccccn1)CC31CN(S(C)(=O)=O)C1,8.0,i,nt,nt,4.0,12.1,0.6,nt,nt
CCS(=O)(=O)CCSc1nc(C)cc(C)c1C#N,-45.8,i,0.678,-4.6,-6.6,-2.5,-3.2,-1.5,-1.9%
COc1cc(OC)cc(-c2nc3ccccc3c(=O)n2NC(=O)c2cccnc2Cl)c1,-0.9,i,0.685,0.4,14.7,7.1,1.8,-8.9,nt
CCc1cc2c(N=Nc3c(O)[nH]c4ccccc34)ncnc2s1,nt,nt,0.658,22.5,nt,nt,nt,-15.7,2.9%
COc1ccccc1NC(=S)NC(C)C(c1cccs1)N1CCOCC1 (centres undefined),-22.9,i,0.703,2.7,-4.4,1.1,1.3,4.5,-2.4%
CN(C(=O)CSc1nnc(-c2ccncc2)n1Cc1ccccc1)C1CCS(=O)(=O)C1 (centres undefined),nt,nt,0.685,-1.4,nt,nt,nt,-15.4,-2.1%
N#CCOC(=O)c1sccc1-n1cccc1,nt,nt,0.741,1.5,nt,nt,nt,2.1,67.0%
O=C(NCc1ccc(F)cc1)C1CCN(S(=O)(=O)c2ccc3c(c2)OCCCO3)CC1,nt,nt,0.7,1.9,nt,nt,nt,0.5,nt
CC(Sc1ccccc1)C(=O)NN=C1CCCCCC1 (centres undefined),-1.2,nt,0.685,-3.9,14.2,4.5,-0.4,-9.7,13.8%
O=C(CC1SC(N2CCCC2)=NC1=O)Nc1ccc(C(=O)NCCOc2ccccc2F)cc1 (centres undefined),1.4,i,0.669,-3.0,2.2,7.2,4.3,nt,6.0%
COc1cccc(NC(=O)N2C[C@@H](O)COC[C@@H]3O[C@@H](CC(=O)NC4CCC4)CC[C@H]32)c1,-5.0,i,nt,nt,-1.1,3.0,-5.1,nt,nt
CC1(C)CC(CC(=O)Nc2ccccn2)C(=O)O1 (centres undefined),nt,nt,0.722,-0.3,nt,nt,nt,-5.8,10.2%
Cc1ccc(Cn2cc(/C=C/C(=O)O)c(-c3ccccc3)n2)cc1,nt,nt,nt,3.5,nt,nt,nt,-0.8,18.6%
NC(CCc1ccccc1)c1csc(Nc2ccccn2)n1 (centres undefined),5.8,i,nt,5.1,-19.8,-57.8,39.7,nt,nt
Cc1nc2ccc(S(=O)(=O)NCC(=O)NCCN3CCCCC3C)cc2s1 (centres undefined),nt,nt,0.775,-0.5,nt,nt,nt,-5.6,-1.4%
O=C(Nc1ccc(Cl)cn1)Nc1ccc(Cl)cn1,-1.8,i,0.697,0.9,1.9,2.6,-1.7,-1.2,-1.9%
Cc1cc(Br)ccc1NC(=O)CN(C)C(=O)CSCc1ccccc1,1.4,i,0.678,-0.7,-8.4,-16.0,-3.9,-6.0,4.2%
O=C1NC(c2ccc3ccccc3c2)Nc2ccccc21 (centres undefined),-0.9,i,nt,-0.3,8.7,3.7,-0.3,nt,3.4%
CCn1cc([N+](=O)[O-])c(=O)c2cc(F)c(N3CCOCC3)cc21,-1.7,i,0.67,-0.5,11.0,2.6,0.3,-16.1,-2.6%
COc1cccc(CC2(CO)CCCN(Cc3c(C)cc(C)cc3-n3cccn3)C2)c1 (centres undefined),3.7,i,0.726,1.9,-5.1,-5.1,-2.5,-22.0,-4.7%
CC(=O)c1ccc(N2CCN(C(=O)c3ccc(Br)cc3)CC2)c(F)c1,nt,nt,0.712,-0.8,nt,nt,nt,nt,18.2%
CN1C(=O)c2cc(NC(=O)C3CCCC3)ccc2OC[C@@H]2O[C@@H](CC(=O)NCC3CC3)CC[C@@H]21,-16.2,i,nt,nt,1.1,-0.8,-0.8,nt,nt
COc1ccc(S(=O)(=O)Nc2ccc3c(c2)CC(=O)N([C@@H](C)CO)C[C@@H](C)[C@@H](CN(C)CC2CC2)O3)cc1,-2.6,i,nt,nt,5.6,-11.3,-1.9,nt,nt
COc1ccc(C2=NN(C(=O)CCC(=O)O)C(c3ccccc3OC)C2)cc1 (centres undefined),-7.0,i,0.689,-5.0,-3.5,-5.9,-3.3,0.7,nt
C[C@@H]1CN([C@@H](C)CO)C(=O)c2cc(-c3cccc(C#N)c3)cnc2O[C@H]1CN(C)Cc1ccncc1,-4.9,i,nt,nt,3.6,16.1,-2.1,nt,nt
CCC(C)c1ccc(NS(=O)(=O)c2c(C)[nH]c(=O)[nH]c2=O)cc1 (centres undefined),-7.2,i,0.685,1.9,-4.6,3.7,5.2,4.6,7.8%
CC=Cc1ccc2n(c1=O)C[C@@H]1[C@@H](CO)[C@H](C(=O)NCc3ccccn3)[C@H]2N1CC1CC1 (mixture of isomers),1.2,i,nt,nt,3.8,5.3,-1.3,nt,nt
COc1ccc(OC)c(NS(=O)(=O)c2ccc(N3CCCC3=O)cc2)c1,nt,nt,0.817,-2.3,nt,nt,nt,5.2,-3.1%
O=C(CSCc1ccccc1)Nc1ccc(F)cc1F,-0.5,i,0.734,1.4,6.8,1.1,1.2,nt,-2.5%
CCOC(=O)C(NC(C)=O)(OCc1ccccc1)C(F)(F)F (centres undefined),nt,nt,0.731,-1.2,nt,nt,nt,nt,14.3%
CCOC(=O)c1cc2ccccc2n1CCN(CC)CC,nt,nt,0.677,-0.8,nt,nt,nt,-46.6,1.9%
COc1ccc(C(CNC(=O)C(C)(C)Oc2ccc(Cl)cc2)N2CCCCC2)cc1 (centres undefined),8.0,i,0.698,1.9,-10.0,-13.8,1.7,-1.5,nt
CN(CCc1ccccn1)C(=O)Nc1cc(Cl)cc(Cl)c1,-0.4,i,0.615,1.1,-34.0,-34.1,0.1,-3.6,nt
CN1CCN(C2CCN(S(=O)(=O)c3ccc(C(C)(C)C)cc3)CC2)CC1,3.5,i,nt,-0.2,9.4,4.7,0.1,nt,nt
CCCCN(C(=O)c1cccc(S(=O)(=O)N2CCCC2)c1)c1c(N)n(CCC)c(=O)[nH]c1=O,-1.6,i,0.66,-1.4,nt,nt,nt,-1.3,2.9%
O=C(COC(=O)c1cccc([N+](=O)[O-])c1)Nc1ccc(Cl)cn1,-4.5,nt,0.698,-1.9,3.4,6.9,-1.5,-8.7,5.5%
COc1ccc([C@@H]2C[C@H](c3ccccc3)Oc3cc(OC)c(OC)c(OC)c32)cc1,1.4,i,nt,0.2,6.6,11.2,-6.3,-22.8,nt
CC(/C=C/c1ccc2c(c1)OCO2)=N/NC(=O)c1cccnc1,-4.8,i,nt,0.4,6.4,7.6,-2.2,-6.3,-5.0%
CN(C)CCN1CCN(C2CN(Cc3ccc([N+](=O)[O-])cc3)S(=O)(=O)C2)CC1 (centres undefined),-0.4,i,nt,-1.6,20.6,20.4,0.4,nt,nt
O=C(COC(=O)COc1cccc(Br)c1)NCc1ccc2c(c1)OCO2,-2.0,i,0.724,3.7,0.4,11.7,0.3,nt,-4.1%
Cc1ccc(N2CCCC2=O)cc1S(=O)(=O)N1CCOCC1,-0.5,i,0.685,-4.8,4.3,6.6,0.0,-11.0,-4.4%
CCC(=O)Nc1ccc2c(c1)nc(CCN1CCN(c3ccccn3)CC1)n2C,-4.3,i,0.626,-1.3,4.6,7.3,1.6,12.1,7.6%
C[C@H](CO)N1C[C@H](C)[C@@H](CN(C)Cc2ccc(C(=O)O)cc2)Oc2ncc(-c3ccccc3)cc2C1=O,-0.4,i,nt,nt,-1.4,4.6,-3.1,nt,nt

# New compounds follow.
SMILES,AF4-AF9 inh,FGF22 binding,Ecoli growth,HNF4A DNA FP,rRNA inh HTS,rRNA inh HTS OD600,rRNA inh HTS RFP,ALR H2O2 inh,Vif A3G
CCC(C)[C@H](NC(=O)Nc1ccc2c(c1)OCCO2)C(=O)OC (some centres undefined),4.9,i,0.678,1.2,-1.1,-11.9,-5.2,0.3,-3.4%
CCn1c2ccc(OC)cc2c2nc3ccccc3nc21,nt,nt,0.71,nt,nt,nt,nt,-5.3,-10.3%
CCCCN=c1sc(C(=O)OC)cc(=O)n1CCCC,nt,nt,0.727,4.0,nt,nt,nt,1.8,-2.4%
Cc1ccc(S(=O)(=O)N(C)C[C@H]2OCCCC[C@@H](C)Oc3ccc(NC(=O)Nc4c(C)noc4C)cc3C(=O)N([C@@H](C)CO)C[C@@H]2C)cc1,2.5,i,nt,nt,-2.7,-2.6,1.2,nt,nt
COc1ccc(NC(=O)c2cc(C3CCCCN3S(C)(=O)=O)on2)c(C)c1 (centres undefined),-4.1,i,nt,-1.8,11.1,7.3,-0.6,nt,nt

# Some of the compounds tested, so the mix of outcomes need not match the whole.
